# Bioassay records as filed in PubChem.
# LANA-H2B inh: blocks KSHV LANA binding to histone H2A/H2B | Q9QR71 | cell-free LANA-H2A/H2B peptide, fluorescence polarization | inhibition, % (concentration not given with the values) | actives 0.6% (n = 320,000); in the data active = inhibition mostly above about 10%, no sharp cut-off; inactive = mostly below about 6.7%;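 also: stock transfer was 7.5 nL into about 10 µL; 0% = median of vehicle wells and 100% = median of positive control wells; one replicate is shown; the record names a cut of 25% in any replicate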
# RanGTP-Imp inh: disruptors of Ran-importin-beta complex formation – biochemical, FRET, CFP-Ran, YFP-importin-beta, homogeneous, primary screen; cell-free CFP-Ran/YFP-importin-beta FRET ratio; inhibition, % (concentration not given with the values); actives 1.1% (n = 300,000);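 active = most replicates above 15%; inconclusive = exactly half above 15%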;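 also: 0% = DMSO wells and 100% = Ran loaded with GDP instead of GTP; wells of about 40 µL received 100 nL stock; the first replicate is given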
# Beta cell apopt: beta cell apoptosis inhibition | INS-1E cytokine-induced death, ATP luminescence, 48 h; percent of positive-control rescue, neutral wells zero | protection from apoptosis, % (no concentration beside the values) | actives 0.8% (n = 300,000);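 active = all replicates at 75% or more, or half of them and the mean; inconclusive = half reach 75% but not the mean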;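 also: 0% = cytokine-treated negative control wells and 100% = positive control rescue; higher means more ATP so stronger rescue from cytokine killing; wells of about 40 µL received 100 nL stock; the first replicate is given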
# A1 inh: inhibitors of the anti-apoptotic protein A1, read as caspase activation. MEF A1-2A-BIM cells, Caspase-Glo 3/7 luminescence, 3 h; percent of clofoctol response, vehicle zero. actives 0.066% (n = 330,000). caspase activation, % (no concentration beside the values);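 active = over half of replicate activation scores above 10%, or exactly half above 10 with the replicate mean above 10; inconclusive = replicate mean below 10 yet half the replicates above 10; inactive = over half of replicates below 10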;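 also: wells of about 30 µL received 50 nL stock; many hits fall short of the cut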
# Calb FLC: C. albicans growth modulation with fluconazole; AID 1979; growth inhibition, % (no concentration beside the values); C. albicans CaCi-2 (fluconazole-resistant clinical isolate) + fluconazole, Alamar Blue growth, 48 h; actives 0.57% (n = 300,000);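 active = most replicates above 75%; inconclusive = exactly half above 75%; inactive = most below 75%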;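 also: all wells also contain fluconazole at 8 µg/ml as a sub-toxic cotreatment; 0% = median of DMSO wells and 100% = median of geldanamycin control wells; wells of about 8 µL received 7.5 nL stock; the first replicate is given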
# B2AR ag: activates human beta-2 adrenergic receptor causing internalization | response, % (test concentration not listed) | AID 504454 | actives 0.43% (n = 340,000) | Am2.2-beta2AR cells, FAP receptor internalization, flow cytometry; reference of the scale not given here | P07550;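 active = response above a set limit, near 3 SD of response in nonfluorescent compounds, cut at about 42% in these data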;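 also: stock transfer was 100 nL into about 11 µL; a reference agonist was the positive control; negative values mostly stem from fluorescent compounds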
# Target sequence (P07550 whole entry, looked up): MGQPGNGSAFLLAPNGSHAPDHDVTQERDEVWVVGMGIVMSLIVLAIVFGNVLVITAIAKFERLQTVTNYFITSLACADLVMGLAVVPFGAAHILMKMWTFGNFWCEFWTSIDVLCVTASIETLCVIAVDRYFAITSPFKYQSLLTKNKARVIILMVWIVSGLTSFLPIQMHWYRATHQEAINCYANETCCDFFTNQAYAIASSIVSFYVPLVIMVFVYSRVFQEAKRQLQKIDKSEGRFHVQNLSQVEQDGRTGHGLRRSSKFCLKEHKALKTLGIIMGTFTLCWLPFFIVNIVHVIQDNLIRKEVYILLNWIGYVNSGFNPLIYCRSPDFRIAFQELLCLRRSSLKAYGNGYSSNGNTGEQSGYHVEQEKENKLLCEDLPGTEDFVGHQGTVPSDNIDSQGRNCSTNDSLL
# T cruzi inh: blocks replication of Trypanosoma cruzi; inhibition, % (test concentration not listed); actives 1.4% (n = 300,000); T. cruzi beta-gal in NIH3T3, luminescence, 90 h;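 active = mean inhibition across valid replicates above about 55%, limit read from the data; inconclusive = mean below that limit but half or more replicates reach it; inactive = mean below it, under half of replicates reach it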;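 also: signal also drops with host cell toxicity which is not excluded here; 0% = plate median of DMSO wells and 100% = zero luminescence signal; higher percent means less beta-gal luminescence so fewer parasites; stock transfer was 50 nL into about 50 µL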
# UCH37 inh: inhibitors of human deubiquitinating enzyme UCH37. Q9Y5K5. actives 0.33% (n = 330,000). inhibition, % (concentration not given with the values). purified proteasome/UCH37, Ub-AMC cleavage fluorescence;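 active = mean of two replicates above 20%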;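 also: 0% = compound-free wells with enzyme and 100% = wells lacking proteasome; stock transfer was 100 nL into about 20 µL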
# Target sequence (Q9Y5K5 whole entry, looked up): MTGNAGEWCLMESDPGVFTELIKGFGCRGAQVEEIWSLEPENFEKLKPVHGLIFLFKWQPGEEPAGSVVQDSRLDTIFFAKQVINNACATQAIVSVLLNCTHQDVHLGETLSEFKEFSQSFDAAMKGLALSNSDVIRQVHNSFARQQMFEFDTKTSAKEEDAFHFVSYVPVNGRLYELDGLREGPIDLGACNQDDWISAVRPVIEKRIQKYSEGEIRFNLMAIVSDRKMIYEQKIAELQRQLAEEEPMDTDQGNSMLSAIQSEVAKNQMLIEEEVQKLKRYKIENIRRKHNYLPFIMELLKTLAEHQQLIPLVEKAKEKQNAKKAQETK
#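 Material: Human UCH37 enzyme supplied as purified proteasome complex | Schedule: 30 min compound-proteasome preincubation then 25 min substrate reaction, room temperature | Detection: AMC fluorescence from Ub-AMC cleavage, excitation 355 nm, emission 460 nm | Benchmarks: Wells without proteasome as full block, compound-free enzyme plus substrate as uninhibited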
# Numbers without * were called inactive; ? = inconclusive; / = no result given.
SMILES,LANA-H2B inh,RanGTP-Imp inh,Beta cell apopt,A1 inh,Calb FLC,B2AR ag,T cruzi inh,UCH37 inh
CC(NC(=O)Cc1ccc(F)cc1)C(c1cccs1)N1CCN(C)CC1 (configuration not stated),0.3,0.2,0.0,0.7,-8.2,22.8,-14.4,3.8
CCOc1nc(NC(=O)NC(=O)c2ccccc2)nc(-c2ccccc2)n1,-6.8,1.8,-1.4,0.5,6.8,-3.9,10.2,0.7
COc1cc2c(cc1OC)C(C)N(C(=O)CCc1c[nH]c3ccccc13)CC2 (configuration not stated),1.2,5.6,-5.3,0.1,-2.6,-0.1,-7.6,2.0
Cc1ccc(SCC(=O)Nc2ccc(N3CCN(C)CC3)c(F)c2)c(C)c1,6.0,-2.8,9.4,-0.5,3.3,-0.7,46.5,4.5
COc1cc(C2C(C#N)=C(N)OC3=C2C(=O)CC(C)(C)C3)cc([N+](=O)[O-])c1O (configuration not stated),-2.4,6.9,-4.4,0.6,-9.0,8.2,-24.9,7.8
COC(=O)c1c(NC(=O)CN(c2ccccc2)S(C)(=O)=O)sc2c1CCCC2,-5.0,6.8,8.4,-0.7,21.0,-2.0,26.8,2.3
N#C/C(=N\Nc1cccc(F)c1)C(=O)C1CC1,1.1,-0.8,19.6,-3.0,4.9,-2.7,-12.3,/
Cc1c(Cl)cccc1NC(=O)CCCN1C(=O)c2cccnc2C1=O,-3.1,-2.6,/,-0.4,-29.3,0.4,-6.5,2.2
CC(=O)Nc1c(-c2ccccc2)c2cc(Br)ccc2[nH]c1=O,10.7,-3.5,1.9,-0.4,-2.6,-8.6,0.9,3.7
O=S(=O)(NCCc1nnc2ccc(SCc3cccnc3)nn12)c1ccccc1,1.9,-5.7,-4.7,-1.1,0.9,-5.8,-3.3,-0.2
CCn1ccnc1CN(C)Cc1nc(CCC(C)C)no1,3.1,4.6,-3.0,-0.4,-6.9,5.8,-12.5,4.3
O=C(O)CSc1nnc(SCc2cccc3ccccc23)s1,-1.8,1.1,-7.7,0.2,9.5,-1.3,-16.6,6.9
CCOC(=O)N1CCC(N2C(=O)c3ccc(C(=O)NCCOC)cc3C2=O)CC1,-4.5,0.1,-5.9,-0.1,-4.6,-13.1,-5.9,4.3
COc1ccc(-c2ccoc2)cc1[C@H]1[C@H]2C=CC[C@@H](C)[C@@H]2C(=O)N1Cc1ccccc1,1.0,1.8,-0.5,0.1,-0.4,0.6,21.1,-1.8
N/C(=C/C(=O)c1ccccc1O)C(F)(F)F,-35.9,-0.1,-6.8,-0.3,6.9,-4.1,2.4,4.1
Cc1ccc(NC(=O)Cn2nc(C)c([N+](=O)[O-])c2C)cc1C,13.7,1.4,7.5,0.7,-21.0,-6.9,-4.2,0.8
CCOc1ccccc1NC(=O)CCSc1nc2n[nH]c(C)c2c(=N)n1-c1ccccc1Cl,7.5,0.3,8.7,-0.1,0.8,24.1,21.4,-5.5
Cc1ccccc1C(=O)NC1CCN(CC(=O)Nc2ccc3c(c2)OCCO3)CC1,3.6,?,0.9,0.6,-9.0,-4.3,3.2,3.9
COc1cccc(C(=O)CSc2nnnn2C2CCCCC2)c1,0.4,0.5,0.0,0.6,-11.3,-6.1,1.0,2.4
CCc1cccc(NC(=O)COc2ccccc2)c1,-3.5,-3.0,-2.7,0.0,-1.2,1.8,-16.1,1.2
CCCCC1=CC2=CC(=O)C(C)(OC(=O)CC)C(=O)C2=CN1CCCOC(C)C (configuration not stated),7.5,?,-1.6,-1.0,5.7,-1.0,9.3,/
c1sc2[n+](c1C13CC4CC(CC(C4)C1)C3)CCS2,-1.9,-1.4,15.4,0.1,-4.4,2.5,8.2,2.4
CCOC(=O)[C@H]1[C@H]2COc3ccc(Cl)cc3[C@@H]2N2C(=O)CN(Cc3ccco3)C(=O)[C@@]12C,-1.4,/,-6.0,-0.4,/,2.8,/,1.5
C/C(=N/OCC(=O)Nc1ccccc1)c1cccs1,3.4,3.6,/,-2.9,8.6,-7.0,0.0,/
CSc1nc(C)c2cc(C)oc2n1,0.6,3.1,/,0.4,7.2,10.8,-14.6,-0.8
NS(=O)(=O)c1ccccc1,0.8,-1.0,-1.6,0.3,-3.5,-0.9,-9.5,2.8
O=C(Cn1cnnn1)Nc1ccccc1Cc1ccccc1,3.9,?,3.9,-1.4,0.3,-1.4,2.2,0.9
COc1cc(-c2cccs2)cc(=O)c2c(C)oc(C)c12,-0.2,-0.8,-0.3,-0.9,2.0,-12.2,4.0,1.1
Cc1ccc(S(=O)(=O)Nc2ccc(C(=O)NCCCN3CCOCC3)cc2)cc1[N+](=O)[O-],-0.2,0.2,4.6,0.7,/,-3.6,-7.8,4.1
CCCCCCCCCC(=O)N/N=C(\C)c1cccnc1,-0.5,1.5,2.0,1.1,-22.1,-4.7,62.4*,/
CCOC(=O)CC(NC(=O)c1cccs1)c1ccc(OCC)cc1 (configuration not stated),3.6,0.3,-7.8,0.3,-4.7,-0.8,-22.3,1.0
OCCC1CN(Cc2cccn2-c2cccnc2)CCN1C1CCCCC1 (configuration not stated),-1.4,-2.4,-4.2,-0.4,-25.2,-2.8,-3.7,6.4
Cc1cccc(N2CCN(C(=O)c3ccc4nccnc4c3)CC2C)c1 (configuration not stated),1.7,/,-9.8,0.1,/,-6.2,/,1.5
COC(=O)CSc1nc(-c2ccc(C)cc2)c2c(c1C#N)CCCC2,-3.2,-0.2,-3.5,0.5,20.4,27.8,29.1,-2.2
O=c1[nH]c(CN2CCN(c3ccccc3)CC2)nc2ccccc12,4.2,1.2,-10.4,0.2,-7.4,-4.6,-9.1,0.1
CCCC[C@@H]1CNC(=S)N1CC1CCCCC1,1.2,-0.9,-1.2,-1.7,-49.4,-5.0,-17.1,1.9
Cc1ccccc1C(=O)Nc1nnc(SCC(=O)NCc2ccco2)s1,1.0,-2.1,5.3,-0.3,-4.9,1.8,-10.4,-5.2
CN(C)C(=S)Nc1ccc(S(=O)(=O)N2CCCCC2)cc1,0.8,1.5,-1.3,0.6,15.3,0.6,-11.7,-0.1
Cn1nnnc1NC(=O)c1ccccc1Cl,4.1,-3.6,-3.0,0.3,-11.2,-9.9,-14.5,4.5
O=[N+]([O-])c1ccc(OCCN2CCNCC2)cc1,1.9,-1.4,0.3,-0.6,8.4,12.2,57.9*,/
CCCCN(CCCNC(=O)C1CCN(S(=O)(=O)CC)CC1)c1ccccc1,-1.1,21.8*,-6.9,0.1,4.1,6.8,0.9,1.4
CC1(C)CC(n2c(=S)[nH]c3ccccc3c2=O)CCO1 (configuration not stated),-3.3,-0.4,0.5,0.9,-4.9,-8.1,-25.2,/
CCCN(C(=O)CSc1ccccc1C(=O)O)C1CCS(=O)(=O)C1 (configuration not stated),-3.8,/,-5.3,2.7,/,-4.7,/,0.7
CC(C)C(NC(=O)c1ccccc1)C(=O)NCC(c1ccccc1)N(C)C (configuration not stated),1.2,-0.2,-8.9,-0.1,-19.0,0.8,4.1,1.5
NS(=O)(=O)c1cc(Cl)c(NC(=O)COC(=O)c2ccccn2)c(Cl)c1,6.6,/,3.8,1.9,/,-3.2,/,1.9
Cc1ccc(-c2nnc(Nc3ccc(C(=O)N(C)C)cc3)c3ccccc23)cc1S(=O)(=O)NCC1CCCO1 (configuration not stated),-3.4,-4.4,7.2,-0.1,-6.4,7.5,-16.9,-0.6
O=C(C1CC2C=CC1C2)N1CCN(c2ccccc2)CC1 (configuration not stated),-9.2,-2.2,2.0,0.0,-12.6,-5.1,6.5,0.3
Cc1ccccc1NC(=O)c1nc(S(C)(=O)=O)ncc1Cl,3.4,0.5,0.5,0.1,-1.7,6.4,45.6,3.6
O/N=C/c1cc(Br)ccc1OCc1ccc(F)cc1,1.5,-5.3,-3.5,-0.6,-17.0,-1.5,3.1,/
CSc1ccc(S(=O)(=O)NCCOc2ccccc2C)cc1,-5.3,1.7,-1.2,0.7,-11.1,-2.4,-17.4,-1.8

# (more compounds)
SMILES,LANA-H2B inh,RanGTP-Imp inh,Beta cell apopt,A1 inh,Calb FLC,B2AR ag,T cruzi inh,UCH37 inh
CCCC(=O)Nc1sc2c(c1C(=O)Nc1ccccn1)CCCC2,-2.8,-2.4,6.2,-0.3,-0.3,-10.8,29.5,-1.3
COc1ccc(/C=N/NC(=O)CCCOc2ccc(Cl)cc2Cl)cc1[N+](=O)[O-],1.9,4.2,-7.4,-0.9,5.7,1.1,38.0,/
CC(Sc1nnc(CC(=O)Nc2ccccc2F)n1C)C(=O)Nc1nccs1 (configuration not stated),2.8,-2.8,3.4,0.8,-8.3,0.2,7.3,2.0
Cc1cc(NC(=O)CC(C)C)c(=O)n(Cc2c(F)cccc2Cl)c1,0.3,-0.4,3.9,-0.4,4.1,-4.5,-2.3,-1.8
C/C(=C\C(=O)c1ccc(C)cc1)NCc1ccc(F)cc1,-1.6,0.0,-5.6,0.2,0.3,-1.4,24.4,3.2
CCOc1ccccc1C(=O)Nc1ccc2nc3n(c(=O)c2c1)CCCCC3,-5.3,1.0,4.5,-1.3,?,-7.8,13.8,2.1
Cc1ccccc1-n1nc(-c2cccnc2)cc1C(=O)NN,0.4,4.3,-6.6,0.6,-4.8,-3.5,1.8,1.8
CCN(CC)C(=S)SCc1csc(CC(=O)Nc2ccccc2C)n1,-1.8,-1.0,/,0.2,5.9,-8.2,19.4,5.4
CCn1ccnc1C(O)c1ccccc1OC (configuration not stated),2.7,0.9,-4.5,0.9,-3.8,3.4,-3.8,0.9
COc1cc2c(cc1NC(=O)CN1CCN(S(=O)(=O)c3ccc(F)cc3)CC1)oc1ccccc12,-1.2,4.4,10.8,-0.1,17.3,-4.5,27.7,-25.1
CC(=O)c1sc(NC(=O)CCCOc2ccccc2C)nc1C,-1.1,?,-4.9,-0.2,5.4,7.8,-0.9,6.4
Cc1ccc(S(=O)(=O)Nc2nnc(CC(C)(C)C)s2)cc1,-1.6,-2.3,-6.3,0.1,-3.4,11.6,-0.7,2.5
CCc1ccccc1NC(=O)NNC(=O)c1ccc2ccccc2c1O,1.4,-3.0,6.8,0.6,22.7,-5.2,-1.2,-170.1
CC(=O)OC1OCCOC1NC(=S)NCc1ccco1 (configuration not stated),-4.3,6.3,-5.0,-1.1,32.2,1.2,-12.4,1.0
O=S(Cc1ccccc1)CC(O)(c1ccc(Cl)cc1)c1ccc(Cl)cc1 (configuration not stated),0.7,-3.9,-1.6,0.6,42.8,5.4,21.6,5.7
Cn1c(=O)c2c(nc(SCC(=O)OCc3ccccc3)n2C)n(C)c1=O,/,0.3,/,/,18.5,-0.3,-0.4,1.4
O=C(CN1CCN(c2ccccn2)CC1)Nc1ccccc1C(=O)Nc1ccccc1,1.1,3.5,9.4,-0.2,10.0,8.7,13.7,0.9
CC(C)NS(=O)(=O)c1cc(C(=O)O)ccc1Cl,2.2,1.7,-6.7,0.3,-11.9,-6.4,-7.9,-0.6
CCOC(=O)N1CCN(C(=O)C(=O)NNC(=O)COc2ccc(Cl)c(C)c2)CC1,4.2,0.4,1.0,0.0,6.3,-9.1,-16.0,6.1
Clc1cccc(Cl)c1COc1ccccn1,-3.0,-0.7,-18.4,0.0,4.0,4.5,-15.5,0.4
COc1ccc(-n2c(SCC(=O)NCC3CCCO3)nc3c(c2=O)SCC3)cc1OC (configuration not stated),0.2,9.6,-10.2,1.1,-0.3,-8.6,-7.8,9.9
O=C(CN1CCc2ccccc21)NC(c1ccccc1)c1ccccc1,-1.4,-0.9,1.4,0.4,-23.8,0.3,4.7,-1.6
